T cruzi repl = T. cruzi replication inhibition; T. cruzi beta-gal in NIH3T3, luminescence, 90 h; AID 1885; inhibition, % (test concentration not listed); hit rate 1.4% among 300,000;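 active means mean inhibition across valid replicates above about 55%, limit read from the data; inconclusive means mean below that limit but half or more replicates reach it; inactive means mean below it, under half of replicates reach it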;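 further: signal also drops with host cell toxicity which is not excluded here; 0% = plate median of DMSO wells and 100% = zero luminescence signal; higher percent means less beta-gal luminescence so fewer parasites; stock transfer was 50 nL into about 50 µL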
Calb FLC = C. albicans growth modulation with fluconazole; hit rate 0.57% among 300,000; C. albicans CaCi-2 (fluconazole-resistant clinical isolate) + fluconazole, Alamar Blue growth, 48 h; growth inhibition, % (test concentration not listed); AID 1979;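 active means most replicates above 75%; inconclusive means exactly half above 75%; inactive means most below 75%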;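 further: all wells also contain fluconazole at 8 µg/ml as a sub-toxic cotreatment; 0% = median of DMSO wells and 100% = median of geldanamycin control wells; wells of about 8 µL received 7.5 nL stock; the first replicate is given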
Ecoli rRNA inh = inhibits bacterial ribosomal RNA function over humanized ribosomes | E. coli WT GFP vs humanized-ribosome RFP mutants, fluorescence, 24 h; active compounds read low; DMSO median 0, no signal -100 | GFP signal change (wild-type ribosome), % (test concentration not listed) | hit rate 1.6% among 350,000;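 active means significant combined selectivity score with lowered wild-type GFP, culture density cut under 30%, mutant RFP and density less affected; inactive means any of these conditions unmet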; further: one replicate is shown; some compounds called inactive have numbers as strong as hits
LANA-H2B inh = blocks KSHV LANA binding to histone H2A/H2B; Q9QR71; cell-free LANA-H2A/H2B peptide, fluorescence polarization; inhibition, % (no concentration beside the values); hit rate 0.6% among 320,000; AID 2629; in the data active means inhibition mostly above about 10%, no sharp cut-off; inactive means mostly below about 6.7%;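 further: stock transfer was 7.5 nL into about 10 µL; 0% = median of vehicle wells and 100% = median of positive control wells; one replicate is shown; the record names a cut of 25% in any replicate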
Target sequence (Q9QR71 whole entry, looked up): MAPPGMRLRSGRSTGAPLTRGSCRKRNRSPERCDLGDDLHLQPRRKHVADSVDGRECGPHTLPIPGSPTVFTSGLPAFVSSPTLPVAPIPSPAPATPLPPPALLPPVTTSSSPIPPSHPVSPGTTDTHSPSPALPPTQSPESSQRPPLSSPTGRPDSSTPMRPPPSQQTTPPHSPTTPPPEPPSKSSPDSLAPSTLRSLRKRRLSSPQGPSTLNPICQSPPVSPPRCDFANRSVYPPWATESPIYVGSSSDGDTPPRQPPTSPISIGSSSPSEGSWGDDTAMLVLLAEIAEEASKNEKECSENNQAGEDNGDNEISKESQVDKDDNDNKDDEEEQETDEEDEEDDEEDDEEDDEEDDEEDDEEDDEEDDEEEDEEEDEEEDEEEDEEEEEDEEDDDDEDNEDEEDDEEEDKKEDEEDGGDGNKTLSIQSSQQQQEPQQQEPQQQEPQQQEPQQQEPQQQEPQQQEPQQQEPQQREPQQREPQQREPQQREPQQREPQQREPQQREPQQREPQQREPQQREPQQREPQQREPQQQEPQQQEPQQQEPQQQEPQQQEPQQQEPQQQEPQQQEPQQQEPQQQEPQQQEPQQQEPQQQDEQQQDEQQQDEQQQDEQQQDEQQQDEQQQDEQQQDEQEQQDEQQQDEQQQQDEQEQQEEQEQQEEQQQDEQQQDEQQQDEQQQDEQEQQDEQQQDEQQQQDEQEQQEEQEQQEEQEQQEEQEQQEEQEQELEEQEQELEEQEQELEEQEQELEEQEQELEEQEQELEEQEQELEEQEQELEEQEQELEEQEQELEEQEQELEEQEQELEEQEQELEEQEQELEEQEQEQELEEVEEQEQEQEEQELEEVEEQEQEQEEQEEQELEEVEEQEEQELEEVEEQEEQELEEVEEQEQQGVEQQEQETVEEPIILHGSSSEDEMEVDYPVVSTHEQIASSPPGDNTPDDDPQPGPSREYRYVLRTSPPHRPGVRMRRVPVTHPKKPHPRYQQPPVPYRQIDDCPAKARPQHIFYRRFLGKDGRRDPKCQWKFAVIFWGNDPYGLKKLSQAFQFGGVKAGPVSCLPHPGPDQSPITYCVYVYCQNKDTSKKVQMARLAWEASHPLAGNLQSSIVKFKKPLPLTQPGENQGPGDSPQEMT
ALR inh = inhibitors of human sulfhydryl oxidase ALR. P55789. purified ALR, DTT oxidation, H2O2 HRP-luminol luminescence. inhibition, % (concentration not given with the values). hit rate 3.8% among 290,000. AID 485317;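 active means mean and each replicate at 75% or more; inconclusive means only one of the two met; inactive means neither met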;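 further: stock transfer was 7.5 nL into about 7.5 µL; 0% = neutral wells and 100% = wells with inactivated enzyme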
Bfl-1 A1 inh = inhibitors of the anti-apoptotic protein A1, read as caspase activation; MEF A1-2A-BIM cells, Caspase-Glo 3/7 luminescence, 3 h; percent of clofoctol response, vehicle zero; caspase activation, % (concentration not given with the values); hit rate 0.066% among 330,000; AID 2462;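 active means over half of replicate activation scores above 10%, or exactly half above 10 with the replicate mean above 10; inconclusive means replicate mean below 10 yet half the replicates above 10; inactive means over half of replicates below 10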;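 further: wells of about 30 µL received 50 nL stock; many hits fall short of the cut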
Beta cell apopt = blocks beta cell apoptosis | INS-1E cytokine-induced death, ATP luminescence, 48 h; percent of positive-control rescue, neutral wells zero | protection from apoptosis, % (concentration not given with the values) | hit rate 0.8% among 300,000;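 active means all replicates at 75% or more, or half of them and the mean; inconclusive means half reach 75% but not the mean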;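 further: 0% = cytokine-treated negative control wells and 100% = positive control rescue; higher means more ATP so stronger rescue from cytokine killing; wells of about 40 µL received 100 nL stock; the first replicate is given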
B2AR ag = activates human beta-2 adrenergic receptor causing internalization | P07550 | Am2.2-beta2AR cells, FAP receptor internalization, flow cytometry; reference of the scale not given here | response, % (test concentration not listed) | hit rate 0.43% among 340,000 | AID 504454;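 active means response above a set limit, near 3 SD of response in nonfluorescent compounds, cut at about 42% in these data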;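 further: stock transfer was 100 nL into about 11 µL; a reference agonist was the positive control; negative values mostly stem from fluorescent compounds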
Ecoli rRNA inh OD600 = further read-out of Ecoli rRNA inh, marked with its call; OD600 change, %; measured here: OD600 growth;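 optical density of the mix in the first replicate; 0 = DMSO median and -100 = no signal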
Ecoli rRNA inh RFP = recorded beside Ecoli rRNA inh, whose call it bears; RFP signal change, %; measured here: RFP humanized mutant strains;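 first replicate; 0 = DMSO median and -100 = no signal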
* hit, by the source's call; ? = inconclusive; · = not tested or not shown. Not all compounds are listed. The share of hits here may be higher or lower than overall.

SMILES	T cruzi repl	Calb FLC	Ecoli rRNA inh	Ecoli rRNA inh OD600	Ecoli rRNA inh RFP	LANA-H2B inh	ALR inh	Bfl-1 A1 inh	Beta cell apopt	B2AR ag
C1CCN(Cc2nnnn2C2CCCC2)CC1	-10	38	·	·	·	-1.7	·	0.2	-1	2
COc1ccccc1N=C1SC(C(=O)Nc2ccc(F)cc2)CC(=O)N1C (configuration not stated)	-6	-10	·	·	·	-2.0	-5	0.3	-7	5
CCOCCSc1nc2c(c(-c3cccs3)c1C#N)CC/C2=C/c1cccs1	37	6	·	·	·	-3.6	-7	0.3	3	4
O=c1c(C(c2ccc(Cl)cc2)c2c(O)nc3n(c2=O)CCCS3)c(O)nc2n1CCCS2	-6	7	24	21	3.9	4.7	4	0.2	-2	-7
CC1CCN(C(=O)Nc2cccc(NC(=O)N3CCC(C)CC3)c2)CC1	36	-1	·	·	·	0.3	-12	-4.3	-3	2
CN1CCN(C(=O)C2CCN(c3ncc(C(F)(F)F)cc3Cl)CC2)CC1	13	-33	9	2	0.5	-6.1	-1	0.6	0	-16
COc1ccccc1C(=O)COC(=O)c1c(-c2ccccc2)noc1C	-10	20	-15	-18	1.1	-4.7	-1	0.1	4	-1
O=C(Nc1ccc(S(=O)(=O)N2CCCCCC2)cc1)C1CCCO1 (configuration not stated)	3	-13	·	·	·	3.4	-7	-1.2	4	12
Cc1ccc2nc(N/N=C/c3ccco3)cc(C)c2c1	44	48	-20*	-6.2*	-2.2*	-3.4	·	-3.9	-2	-2
CC(C)N(Cc1c(O)ccc2c(=O)c(-c3ccc(Cl)cc3)coc12)C(C)C	17	8	18	14	9.6	1.3	-7	0.7	-3	-6

Eight entries out of the list, ordered by length of the SMILES, rising.
SMILES	T cruzi repl	Calb FLC	Ecoli rRNA inh	Ecoli rRNA inh OD600	Ecoli rRNA inh RFP	LANA-H2B inh	ALR inh	Bfl-1 A1 inh	Beta cell apopt	B2AR ag
C1CCN(Cc2nnnn2C2CCCC2)CC1	-10	38	·	·	·	-1.7	·	0.2	-1	2
Cc1ccc2nc(N/N=C/c3ccco3)cc(C)c2c1	44	48	-20*	-6.2*	-2.2*	-3.4	·	-3.9	-2	-2
COc1ccccc1C(=O)COC(=O)c1c(-c2ccccc2)noc1C	-10	20	-15	-18	1.1	-4.7	-1	0.1	4	-1
COc1ccccc1N=C1SC(C(=O)Nc2ccc(F)cc2)CC(=O)N1C (configuration not stated)	-6	-10	·	·	·	-2.0	-5	0.3	-7	5
CCOCCSc1nc2c(c(-c3cccs3)c1C#N)CC/C2=C/c1cccs1	37	6	·	·	·	-3.6	-7	0.3	3	4
CN1CCN(C(=O)C2CCN(c3ncc(C(F)(F)F)cc3Cl)CC2)CC1	13	-33	9	2	0.5	-6.1	-1	0.6	0	-16
CC(C)N(Cc1c(O)ccc2c(=O)c(-c3ccc(Cl)cc3)coc12)C(C)C	17	8	18	14	9.6	1.3	-7	0.7	-3	-6
O=c1c(C(c2ccc(Cl)cc2)c2c(O)nc3n(c2=O)CCCS3)c(O)nc2n1CCCS2	-6	7	24	21	3.9	4.7	4	0.2	-2	-7

Further results.
SMILES	T cruzi repl	Calb FLC	Ecoli rRNA inh	Ecoli rRNA inh OD600	Ecoli rRNA inh RFP	LANA-H2B inh	ALR inh	Bfl-1 A1 inh	Beta cell apopt	B2AR ag
C=CCn1c(SCC(=O)Nc2sccc2C(N)=O)nc2ccccc2c1=O	18	0	·	·	·	2.1	-6	-0.4	1	5
CC(C)(CNC(=O)c1cccc(S(=O)(=O)Nc2ccc(Br)cc2)c1)N1CCOCC1	-8	1	-6	-2	6.7	0.0	-15	-0.3	3	1
CCCCNC(=O)Nc1ccccc1Br	-7	-6	10	7	-1.8	4.4	-2	-0.5	5	2
NC(N)=Nc1nc(-c2ccccc2)c2ccccc2n1	81*	19	2	-11	2.5	2.0	-1	-0.4	·	-5
O=C(Nc1cccc2ccccc12)c1ccc([N+](=O)[O-])cc1	3	-27	-1	2	-4.3	1.3	-14	0.2	5	2
CCCS(=O)(=O)c1c(S(=O)(=O)CCC)c2c(C)cccn2c1C(=O)N/N=C/c1cc(O)cc(O)c1	0	69	-21*	-12*	-0.7*	3.9	66	-0.1	65	14
O=C(Nc1ccc2ncccc2c1)c1cc(Cl)ccc1Cl	9	-22	-31	-33	-8.7	-2.6	-14	-0.3	3	-5
CC(C)(C)OC(=O)NCCCCCNC(=O)c1[nH]cnc1C(=O)Nc1cccc(Cl)c1	·	·	13	4	-0.2	4.9	0	-1.0	5	10
O=C1NC(c2ccc(Cl)cc2)=COc2ccccc21	10	-28	-12	2	-2.8	-0.9	-17	-0.1	-1	0
CCC(C)(C(=O)NC1CCCC1)N(C(=O)CNC(=O)c1ccccc1)c1c(C)n(C)n(-c2ccccc2)c1=O (configuration not stated)	-4	-26	3	5	-2.2	-2.2	-11	0.3	-1	1
Cc1cc(C(=O)O)ccc1NCc1cccnc1	4	-15	8	2	1.1	2.9	1	?	-3	-6
O=C(CN1CCC(O)(c2ccccc2F)CC1)NCCc1c[nH]c2ccccc12	7	3	·	·	·	-6.8	-1	-0.6	-5	1
Cn1c(SCC(=O)N/N=C/c2ccccn2)nnc1-c1ccccc1	0	0	9	16	-1.2	2.0	-7	-0.1	-7	-7
COC(=O)c1c(NC(=O)C2CCCCC2)sc2c1CC(C)(C)NC2(C)C	6	-3	-52	-77	-7.2	-0.6	·	0.0	-8	-7
Cc1ccc(CNC(=O)CNC(=O)[C@@H]2Cc3ccccc3CN2)cc1	-10	-9	5	16	-0.9	-3.3	-3	0.4	-7	-4
CCN1C(=O)[C@H]2[C@@H](c3ccc(-c4cccc(Cl)c4)cc3)N[C@@](Cc3ccccc3)(C(=O)OC)[C@H]2C1=O	55*	7	0	-6	1.7	1.1	1	-0.1	-1	6
O=[N+]([O-])c1ccc(Cl)c2c1C1C=CCC1C(c1ccccn1)N2 (configuration not stated)	-5	23	2	11	-4.5	-0.1	-20	1.2	4	-3
Nc1nnc(SCC(=O)Nc2ccc3c(c2)OCCO3)s1	0	-1	·	·	·	6.0	41	-1.0	-5	7
Cc1ccc(N=CC2=C(O)CC(c3ccc(Cl)cc3)CC2=O)cc1 (configuration not stated)	-1	3	25	9	0.5	-9.3	-5	-0.3	-17	-2
O=C(N/N=C/c1ccc(Cl)cc1)c1cc(-c2cccnc2)nc2ccccc12	-30	22	21	9	-2.6	7.6	-13	0.3	20	15
CN(Cc1ccccc1)C(=S)Nc1cccnc1	1	-31	12	3	-1.0	-1.0	-13	0.1	-2	-7
Nc1ccc(C(=O)NCCCSc2ccccc2)cc1[N+](=O)[O-]	5	-7	-6	-9	0.2	0.2	4	0.6	·	-8
Cc1cc(C)c(NC(=O)COC(=O)C23CC4CC(CC(O)(C4)C2)C3)c(Cl)c1	·	·	1	0	2.7	3.3	-5	1.9	-3	0
C=C1CCN([C@H](C(=O)NCc2ccc(Cl)cc2)C(C)C)S(=O)(=O)c2ccccc21	·	·	-4	-11	3.9	6.0	-8	0.2	-5	-3
COC(=O)CN(c1cccc(C)c1)S(=O)(=O)c1ccccc1	-7	2	-3	-5	0.7	-1.8	-3	0.5	8	6
COC(=O)C(CCSC)NC(=O)c1cc2c(n(-c3ccccc3)c1=O)CCCC2=O (configuration not stated)	4	35	11	-2	-9.7	2.1	-1	-0.7	-3	-2
CCOC(=O)C1=C(C)N=C2SCCC(=O)N2C1c1cc(Br)ccc1OC (configuration not stated)	10	-9	·	·	·	0.3	1	1.1	-2	-3
Cc1ccc(C(=O)Nc2sc3c(c2C(=O)O)CCCCC3)o1	2	1	·	·	·	0.4	37	-9.9	18	5
O=C(Nc1ccccc1)Nc1ccc(S(=O)(=O)N2CCCCC2)cc1	-5	0	·	·	·	-2.2	-4	-0.4	48	6
C/C(CC(=O)Nc1ccc(N(C)C)cc1)=N\NC(=O)c1ccccn1	·	-7	·	·	·	1.3	96*	0.3	8	1

Results in LANA-H2B inh, for 2 of the compounds above:
Compound | LANA-H2B inh
Cc1ccc(C(=O)Nc2sc3c(c2C(=O)O)CCCCC3)o1 | 0.4
O=C(Nc1ccccc1)Nc1ccc(S(=O)(=O)N2CCCCC2)cc1 | -2.2

Following part
SMILES	T cruzi repl	Calb FLC	Ecoli rRNA inh	Ecoli rRNA inh OD600	Ecoli rRNA inh RFP	LANA-H2B inh	ALR inh	Bfl-1 A1 inh	Beta cell apopt	B2AR ag
N#CC1=C(c2ccc(-c3ccccc3)cc2)COC1=O	-16	-8	3	0	4.3	-1.0	73	-2.0	·	13
CC(c1nnc(SCC(=O)Nc2ccc3[nH]c(=O)[nH]c3c2)n1Cc1ccccc1)N(C)C (configuration not stated)	2	23	·	·	·	1.3	·	2.0	-2	0
NS(=O)(=O)c1ccc(NC(=S)Nc2ccc(Br)c(Cl)c2)cc1	-14	-14	-54	-80	-16	1.1	37	-0.6	·	3
N#Cc1cn(Cc2cccc(Cl)c2)c2ccccc12	33	-3	·	·	·	1.2	-3	-0.3	4	2
CN(C(=O)c1cncc(Br)c1)C1C2CC3CC(C2)CC1C3 (configuration not stated)	4	-16	0	-6	-1.1	2.8	-3	0.3	0	-11
O=C1C2C3C=CC(C2C(=O)N1c1nccs1)C1C(=O)N(c2nccs2)C(=O)C31 (configuration not stated)	-13	0	17	14	2.3	1.4	·	-0.1	-2	-3
CC(C)C[C@@H]1NC(=O)[C@H](Cc2ccc(O)cc2)NC(=O)[C@H](CCC(N)=O)NC(=O)c2cc([N+](=O)[O-])cc(I)c2NCC[C@@H](C(N)=O)NC1=O	-15	-4	·	·	·	2.1	·	0.5	-4	·
Cc1nnc(SCC(=O)N(CC(C)C)C2CCS(=O)(=O)C2)s1 (configuration not stated)	·	·	4	0	1.3	-5.1	-4	-0.5	-2	-8
O=C(/C=C/c1cccc([N+](=O)[O-])c1)c1ccc2c(c1)OCCO2	-6	-3	9	2	0.6	-3.0	96*	-0.1	-12	2
CCOC(=O)CNC(=O)N1CCc2ccc(NC(=O)c3ccccc3Cl)cc2C1	-36	4	1	0	0.8	-3.7	-1	1.4	·	0
CNC(=S)Nc1cccc(S(=O)(=O)NCc2ccco2)c1	·	·	12	6	4.9	-4.8	2	1.2	-3	-2
CSCCC(NC(=O)c1ccccc1Cl)C(=O)NCCc1ccccn1 (configuration not stated)	·	·	-2	10	7.1	-5.6	-6	0.4	1	4
O=C(NCCCCNC(=O)c1ccccc1F)c1ccccc1F	-1	5	2	6	-1.8	-1.5	2	-1.9	-2	4
COC(=O)[C@@H]1C[C@@H]2CC[C@@H](O)C[C@@H]2N1Cc1ccc(Cl)cc1	9	-9	4	-1	1.7	2.7	-32	0.8	-5	0
